From PubChem
Vaccinia Venus: inhibitors of vaccinia virus (Venus reporter); Vaccinia virus Venus reporter expression, fluorescence; Potency, µM (series often up to 36.5 µM), inactives show top-dose activity change, negative = inhibition, most hits filed as inhibitors; 330,000 compounds, 0.46% hits; active means well fitted inhibition curve with a large enough effect; inconclusive means small, poorly fitted or top-dose-only effect; inactive means no such curve, though single readings can be large or run the other way; tested in A549 cells; note: nearly all actives have a fitted effect of over 30% in size; inactives centre near -10
VACV mCherry inh: inhibitors of vaccinia virus infection (mCherry reporter signal). Vaccinia virus mCherry reporter infection, fluorescence; about a quarter of the inactives have no number. Potency, µM (series often up to 36.5 µM), for inactives: at the highest dose activity change, negative = inhibition, hits mostly inhibitors. 310,000 compounds, 0.63% hits; active = well fitted inhibition curve with a large enough effect; inconclusive = small, poorly fitted or top-dose-only effect; inactive = no such curve, though single readings can be large or run the other way; tested in A549 cells; note: nearly all actives have a fitted effect of over 35% in size; inactives centre near -10
Active calls of the source: *; i = inactive; ? = inconclusive; nt = not tested or not shown; & = joins results of further samples; [ ] = another dose, or the depositor's remark. % is set by controls: 0 for no effect and ±100 for the full control effect; potency is the fitted concentration of half-maximal effect. Rows were taken by chance; about 0.82% have a hit in one of these screens.

Start of the data: the first six records, to show the layout:
SMILES	Vaccinia Venus	VACV mCherry inh
O=[N+]([O-])c1ccc(N2CCNCC2)cc1NCc1ccco1	-11%	0%
CC(=O)Nc1ccccc1-c1nc2ccccc2n(C(C)C(=O)c2ccc(C)c(C)c2)c1=O (configuration not stated)	-1%	-5%
COc1ccccc1NC(=O)CCNC(=O)C1CCN(S(=O)(=O)c2ccccc2)CC1	-16%	-17%
C=CCOC(=O)C1=C[C@H](c2csc3ccccc23)C[C@H](OCCCCO)O1	-2%	i
Nc1nc(NC(=O)c2cccs2)nn1-c1ccccc1	-17%	i
COc1ccc2c(c1)[C@H]1[C@H](CO2)[C@H](c2ccccc2)[C@]2(C)C(=O)Nc3ccc(Br)cc3C(=O)N12	?	?

All compounds of this part, from the start:
SMILES	Vaccinia Venus	VACV mCherry inh
O=[N+]([O-])c1ccc(N2CCNCC2)cc1NCc1ccco1	-11%	0%
CC(=O)Nc1ccccc1-c1nc2ccccc2n(C(C)C(=O)c2ccc(C)c(C)c2)c1=O (configuration not stated)	-1%	-5%
COc1ccccc1NC(=O)CCNC(=O)C1CCN(S(=O)(=O)c2ccccc2)CC1	-16%	-17%
C=CCOC(=O)C1=C[C@H](c2csc3ccccc23)C[C@H](OCCCCO)O1	-2%	i
Nc1nc(NC(=O)c2cccs2)nn1-c1ccccc1	-17%	i
COc1ccc2c(c1)[C@H]1[C@H](CO2)[C@H](c2ccccc2)[C@]2(C)C(=O)Nc3ccc(Br)cc3C(=O)N12	?	?
Nc1ccn([C@@H]2O[C@H](COS(=O)(=O)O)[C@@H](O)[C@H]2O)c(=O)n1	2%	i
C/C(=N\Nc1cccc2cccnc12)c1ccccc1O	-4%	?
COc1ccc(NS(=O)(=O)c2ccc(N3CCOCC3)c(NC(=O)c3ccccc3Cl)c2)cc1	-10%	-25%
Nc1cc(=O)nc(SCC(=O)Nc2ccc(F)cc2)n1-c1ccccc1Cl	0%	-8%

Part of the list above, with values under each structure:
Order of values: Vaccinia Venus	VACV mCherry inh
O=[N+]([O-])c1ccc(N2CCNCC2)cc1NCc1ccco1
 : -11%	0%
CC(=O)Nc1ccccc1-c1nc2ccccc2n(C(C)C(=O)c2ccc(C)c(C)c2)c1=O (configuration not stated)
 : -1%	-5%
COc1ccccc1NC(=O)CCNC(=O)C1CCN(S(=O)(=O)c2ccccc2)CC1
 : -16%	-17%
C=CCOC(=O)C1=C[C@H](c2csc3ccccc23)C[C@H](OCCCCO)O1
 : -2%	i
Nc1nc(NC(=O)c2cccs2)nn1-c1ccccc1
 : -17%	i

Following part:
SMILES	Vaccinia Venus	VACV mCherry inh
CCn1c(SCC(=O)Nc2cccc(C)c2)nc2nc3c(cc2c1=O)COC(C)(C)C3	-20%	-5%
CCCSc1nc2cc(C)c(C)cc2n1CC(C)O (configuration not stated)	-8%	i
CCOC(=O)Cc1cc(=O)[nH]c(/N=C(\N)Nc2ccc(C)c(C)c2)n1	-4%	-7%
CCNC(=S)Nc1sc2c(c1C#N)CCC(C)C2 (configuration not stated)	-23%	-25%
O=S(=O)(NC1CCN(Cc2ccccc2)CC1)c1ccc(F)c(F)c1	-12%	-8%
O=C(/C=C/c1ccc(O)cc1)c1c(O)cc(O)cc1O	-4%	i
O=c1cc(-c2ccccc2)oc2ccc3ccccc3c12	?	-20%
Cc1cccc(CNCCn2cc(C(=O)Nc3ccccc3)nn2)c1	-16%	-15%
Cc1cc2nc(-c3ccc(NC(=O)c4ccccc4F)cc3)oc2cc1C	-4%	-11%
Cc1cccc(C(=O)NCc2nnc(SCC(=O)NC3CCCC3)n2C)c1	-5%	-2%
Cc1cc(N)n(-c2ccccn2)n1	-2%	0%
COc1ccc(CNC(=O)c2cn(Cc3ccc(S(=O)(=O)N(C)C)cc3)c(=O)s2)cc1	-10%	0%
CN(C)S(=O)(=O)Nc1cccc(NC(=O)CC23CC4CC(CC(C4)C2)C3)c1	-6%	-18%
Cc1cc(C(=O)OCC(=O)Nc2c(F)cccc2F)c(C)n1-c1ccccc1	-1%	-16%
COc1ccccc1/C=C\C(=O)NCC(=O)N/N=C(/C)c1cccc([N+](=O)[O-])c1	-1%	?
Cc1cc(C(=O)NCc2cc(F)cc3c2OCOC3)nn1C	-6%[7.34 µM]	i[7.34 µM]
CC(C)c1ccccc1OCCCCCNCCO	-17%	-22%
CCc1ccccc1OCc1nnc(N)s1	-22%	nt
OC(c1ccccc1)(c1nc(-c2cc(F)cc(F)c2)cs1)C(F)(F)F (configuration not stated)	?	10%
CCCn1nnc(NC(=O)c2sc3ccccc3c2Cl)n1	-10%	-3%
CCC1(C(=O)OC)NC(c2cccc(F)c2)C2C(=O)N(C)C(=O)C21 (configuration not stated)	-6%	-3%
CCOC(=O)c1sc(NC(=O)c2nc3nc(C)cc(C(F)F)n3n2)c(C(=O)OC(C)C)c1C	-2%	4%
CCOC(=O)c1c(C)oc2c1c(C=NC1CCS(=O)(=O)C1)c(O)c1ccccc12 (configuration not stated)	7%	-14%
CC(C)n1c(SCC(=O)Nc2ccc(F)cc2)nc2c(oc3ccccc32)c1=O	-9%	-6%
Cc1ccc(C(=O)Nc2ccc(N3CCOCC3)c3nonc23)cc1[N+](=O)[O-]	-8%	0%
CCCCn1c(N)c(N(CCOC)C(=O)COC(=O)COc2cccc(C(C)=O)c2)c(=O)[nH]c1=O	-8%	-13%
CCC1CCCCN1CCCNC(=O)c1sc2nc(C)cc(C)c2c1-n1cccc1 (configuration not stated)	-12%	i
Cc1cc(NS(=O)(=O)c2ccc(NC(=O)C(C)Oc3ccc(C(C)C)cc3)cc2)no1 (configuration not stated)	-5%	i
Cc1cccc(CN2C(=O)CSc3ccc(C(=O)NC4CC4)cc32)c1	-6%	i
CCOc1ccc(OCC(=O)OCn2c(SC)nnc(C)c2=O)cc1	-16%	-8%
Cc1ccc(C(=O)NC(=S)NNC(=O)c2ccccc2[N+](=O)[O-])cc1	-8%	nt
COCCNC(=O)CCc1c(C)nc2c(c(C)nn2-c2ccc(C)cc2)c1C	-6%	-11%
O=C1C2C3C=CC(CC3)C2C(=O)N1/N=C/c1c[nH]c2ccccc12 (configuration not stated)	-22%	?
CC1CCc2nc3ccc(S(=O)(=O)N4CCC(C(=O)O)CC4)cc3c(C(=O)O)c2C1 (configuration not stated)	-1%	-4%
O=C(CSc1nc(=O)n(Cc2ccco2)c2c1CCC2)Nc1cccc(F)c1	-5%	-23%
Cc1cc(C)c[n+](C(C)C(=O)c2ccc(Cl)cc2)c1 (configuration not stated)	-15%	-14%
COc1ccc(S(=O)(=O)NCc2ccccc2Cl)cc1OC	-18%	nt
N#Cc1c(-c2cccc(Cl)c2)[nH]c(=S)[nH]c1=O	-8%	-15%
CCOC(=O)C1=C(C)OC(N)=C(C#N)C1c1ccc(C)s1 (configuration not stated)	-3%	-11%
CN[C@H]1C[C@H]2c3cc(-c4ccccc4)ccc3CCN2C(=O)[C@H]1[C@H](C)O	-22%	i
O=C(OCN1C(=O)c2ccccc2C1=O)c1cccc(S(=O)(=O)N2CCOCC2)c1	-9%	i
Cc1cc(NC(=O)CSc2n[nH]c(-c3ccccc3Br)n2)no1	-9%	i
CCN(CC)C(=O)c1cccc(-c2csc(C(O)c3ccc(F)c(OC)c3)n2)c1 (configuration not stated)	?	-27%
CN(C)c1ccc(C(CNS(=O)(=O)c2ccc(Cl)cc2)N2CCOCC2)cc1 (configuration not stated)	-10%	-17%
CCOc1ccc(C(=O)N2CCN(c3cnn(-c4ccccc4)c(=O)c3Cl)CC2)cc1	4%	-12%
Cc1cc(/C=C2\Sc3ccccc3N2C)cc(C)[n+]1CC1CCCO1 (configuration not stated)	?	8.9µM*
CC1CCC(C(C)C)C(OCC(O)CNC(C)C)C1 (configuration not stated)	0%	i
CS(=O)(=O)/C(C#N)=C/c1cccn1S(=O)(=O)c1ccccc1	-9%	-3%
O=C(N/C(=C/c1ccc(F)cc1)C(=O)N1CCCC1)c1ccccc1	-18%	-19%
O=C(/C=C\c1ccco1)Nc1ccc(N2CCN(C(=O)c3ccccc3)CC2)cc1	-9%	?

(listing goes on)
SMILES	Vaccinia Venus	VACV mCherry inh
COc1ccc(Cl)cc1Nc1cc(C)nc2nc(C)nn12	0%	-4%
Cc1nn(-c2ccccc2)c(C)c1P(=O)(c1ccccc1)N(C)C (configuration not stated)	-9%	i
COc1cccc(-n2c(Cc3cc(=O)[nH]c(=O)[nH]3)nnc2SCC(=O)N2CCC(C)CC2)c1	-4%	-16%
CC#CC(=O)N1CCC(CCc2ccccc2)(C(=O)OCC)CC1	-16%	-2%
Cc1ncc(CC(=O)n2cc(C(=O)c3cc(Cl)ccc3O)cn2)s1	1%	-9%
C[C@H]1CN([C@@H](C)CO)C(=O)Cc2cc(NC(=O)CCC(F)(F)F)ccc2O[C@H]1CN(C)S(=O)(=O)c1ccc(Cl)cc1	?	-20%
CS(=O)(=O)c1ccccc1-c1nnc(NC(=O)c2ccc(S(=O)(=O)N3CCCC3)cc2)o1	-7%	i
Cc1ccc(NC(=O)CSc2nc3c(c(=O)[nH]2)CN(Cc2ccc4c(c2)OCO4)CC3)cc1C	-6%	-9%
CCOC(=O)[C@H]1[C@H]2COc3ccc(Cl)cc3[C@@H]2N2C(=O)CN(Cc3ccccc3)C(=O)[C@@]12C	-1%	i
Cc1cc(=O)oc(C)c1C(=O)NC1CC(C)(C)NC(C)(C)C1	-19%	nt
Cc1ccc(S(=O)(=O)N2CCC(=O)N(CCOC(=O)Nc3ccc(F)cc3)CC2)cc1	?	-10%
NNC(=O)CCN1CCN(Cc2ccccc2)CC1	0%	0%
Cc1ccc(CN(C(=O)c2c(F)cccc2F)C2CC(C)(C)NC(C)(C)C2)o1	-5%	-7%
O=C(CN1CCOCC1)NNC(=S)Nc1ccc(Cl)cc1	2%	-15%
O=S(=O)(NCC(c1cccs1)S(=O)(=O)c1ccccc1)c1ccc(F)c(C(F)(F)F)c1 (configuration not stated)	-17%	-15%
CCOC(=O)c1ccc(NC(=O)c2ccc3c(c2)CCN3S(=O)(=O)c2ccc(Cl)cc2)cc1	-18%	-25%
CCNC(=O)Nc1ccccc1C(=O)OC	6%	3%
CCc1cc(-c2n[nH]c(=S)n2N)n(C)n1	-21%	-11%[1.46 µM]
COc1cccc(NC(=O)c2ccccc2OCC(=O)Nc2ccc(Br)cc2)c1	-13%	-10%
COCCn1c(-c2ccc(Cl)cc2)cnc1SCC(=O)NCCc1ccc(OC)c(OC)c1	-9%	?
CSc1ccc(C(=S)N2CCN(C)CC2)cc1	-8%	-21%
O=C(Cc1cccs1)Nc1ccc(-c2nnn(CC(=O)N3CCOCC3)n2)cc1	-4%	0%
COc1ccc(C(=O)C(OP(=O)(OC)OC)c2ccccc2OC)cc1 (configuration not stated)	-7%	-25%
CCOC(=O)C1CCN(C(=O)Cc2ccc(OC)c(OC)c2)CC1	3%	nt
COc1ccccc1C1CN(Cc2cnn(C)c2)Cc2ccccc2O1 (configuration not stated)	0%	-9%
C[C@@H](NCCCn1ccc(NC(=O)OCc2ccccc2)nc1=O)c1cccc2ccccc12	-10%	?
O=C(CC(c1ccc(F)cc1)c1ccco1)Nc1nccs1 (configuration not stated)	3%	-4%
CC(C)(NC(=O)c1cc(Cl)c2ccccc2c1O)C(=O)O	-12%	i
COc1ccc(/C(C)=N/NC(=O)CNC(=O)c2cccnc2)cc1OC	-15%	-6%
CC(=O)C1=C(O)CCCC1=NCc1nc2ccccc2[nH]1	-8%	-9%
COc1ccc2c(c1)OCC(Cc1ccc(OC)c(OC)c1)C2O (configuration not stated)	6%&0%	17%
O=C(O)Cc1ccc(NS(=O)(=O)c2ccc3c(c2)OCCO3)cc1	-11%	i
O=C1c2ccccc2C(=O)N1S(=O)(=O)c1ccccc1	-7%	i
O=C(/C=C/c1ccc([N+](=O)[O-])cc1)OCC(=O)N1CCCCCC1	-18%	-8%
COC(=O)c1sccc1NC(=S)N1CCCCC1C (configuration not stated)	-20%	-16%
CCN(C(=O)CSc1nc(C)c(C)c(C)n1)C1CCS(=O)(=O)C1 (configuration not stated)	-14%	-2%
COc1cc(OC)cc(C(=O)Nc2ccc(Cl)cc2C(=O)c2ccccc2Cl)c1	3%	-2%
O=C(Cn1nnc(-c2ccccc2)n1)Nc1ccccc1N1CCOCC1	-13%	i
Cc1ccc(C(=O)NCCCNC(=O)c2ccco2)cn1	-14%	-1%
COC(=O)C1=C(C(=O)OC)SC(=C2C(=S)C(C)(C)N(C(=O)C3CC3)c3ccccc32)S1	0%	-15%
COC(=O)c1ccccc1NC(=O)Cn1c(=O)n(-c2cccc(OC)c2)c(=O)c2c(C)c(C(=O)N(C)C)sc21	-27%	-25%
CC(C)NC(=O)C1(C)CN(S(C)(=O)=O)CC(=O)N1CCCn1ccnc1 (configuration not stated)	1%	-8%
CCOc1ccc(-c2nnc3sc(COc4ccc(C)cc4)nn23)cc1	-5%	-7%
Clc1ccc(Cn2ncc3c(N4CCCCC4)ncnc32)c(Cl)c1	-16%	nt
CCCN1CCC(=O)N([C@H](CSc2ccc(C)cc2)Cc2ccccc2)CC1	-17%	i
CCNC(=S)N(CCN(C)C)Cc1cc2cc(OCC)ccc2[nH]c1=O	-4%	-15%
Cc1sc2ncnc(N3CCC(C(=O)Nc4ccc(C#N)cc4)CC3)c2c1C	-3%	-11%
Cn1c(N)c(C(=O)COC(=O)CNC(=O)c2ccccc2)c(=O)n(C)c1=O	-11%	-20%
Cc1ccc([C@@H]2CC(=O)[C@@H]3CN(S(=O)(=O)c4ccc(C)cc4)[C@H](c4cccc5ccccc45)C[C@@H]3N2S(=O)(=O)c2ccc(Cl)cc2)cc1	-8%	i
COC(=O)[C@@]1(Cc2ccc(F)cc2)[C@H]2c3cc(C(=O)N(C)C)n(CCc4c[nH]c5ccc(O)cc45)c3C[C@H]2CN1C(=O)c1ccccc1	-12%	-10%
